# hNpr1 antagonist – antagonists of human natriuretic peptide receptor Npr1; P16066; HEK293 hNpr1 GloSensor cGMP, ANP-stimulated luminescence; Potency, µM (doses to about 46.3 µM), without a hit: at the top dose activity change, negative = inhibition, usual class: inhibitors; 76,000 tested, 1.6% active; active = well fitted inhibition curve with a large enough effect; inconclusive = small, poorly fitted or top-dose-only effect; inactive = no such curve, though single readings can be large or run the other way;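 further: nearly all actives have a fitted effect of over 60% in size; nearly all hits also lower the signal before the agonist is added; a reference antagonist and vehicle were the controls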
# Target sequence (P16066 whole entry, looked up): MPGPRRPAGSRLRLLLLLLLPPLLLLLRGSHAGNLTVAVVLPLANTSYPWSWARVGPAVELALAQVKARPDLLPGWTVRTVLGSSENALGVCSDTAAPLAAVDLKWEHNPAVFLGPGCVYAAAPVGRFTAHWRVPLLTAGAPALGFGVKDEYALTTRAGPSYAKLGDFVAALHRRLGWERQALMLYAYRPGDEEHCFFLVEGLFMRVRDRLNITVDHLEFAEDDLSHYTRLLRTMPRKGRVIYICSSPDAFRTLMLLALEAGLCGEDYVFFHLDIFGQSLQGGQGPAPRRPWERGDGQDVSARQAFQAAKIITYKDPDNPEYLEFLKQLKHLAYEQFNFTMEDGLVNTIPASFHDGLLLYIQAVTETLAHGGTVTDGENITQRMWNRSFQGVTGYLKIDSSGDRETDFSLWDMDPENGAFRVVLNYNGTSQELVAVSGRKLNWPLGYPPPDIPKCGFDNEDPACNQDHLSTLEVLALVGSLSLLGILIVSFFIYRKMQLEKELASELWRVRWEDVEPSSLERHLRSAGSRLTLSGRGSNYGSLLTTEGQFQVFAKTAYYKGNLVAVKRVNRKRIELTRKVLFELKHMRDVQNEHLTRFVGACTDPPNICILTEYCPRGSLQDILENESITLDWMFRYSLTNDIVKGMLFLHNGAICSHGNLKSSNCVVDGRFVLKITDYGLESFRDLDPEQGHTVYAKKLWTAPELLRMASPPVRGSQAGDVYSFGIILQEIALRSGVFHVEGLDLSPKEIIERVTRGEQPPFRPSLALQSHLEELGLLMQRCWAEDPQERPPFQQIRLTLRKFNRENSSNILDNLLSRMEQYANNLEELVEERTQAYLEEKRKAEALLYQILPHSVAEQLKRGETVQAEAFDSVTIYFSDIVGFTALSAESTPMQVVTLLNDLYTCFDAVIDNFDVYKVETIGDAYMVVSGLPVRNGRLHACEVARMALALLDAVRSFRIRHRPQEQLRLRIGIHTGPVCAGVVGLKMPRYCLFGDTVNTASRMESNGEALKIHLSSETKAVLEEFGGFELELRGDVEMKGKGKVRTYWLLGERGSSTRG
#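 Compound pre-incubated 30 min at room temperature on GloSensor-loaded HEK293 cells stably carrying hNpr1 and the pGS-40F cGMP biosensor. Stimulation uses hNppA at 0.1 nM final; luminescence is taken at baseline and 20 min post-agonist.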
# Active calls of the source: *; ? = inconclusive; [ ] = remark or other dose. On the % scale 0 is the no-effect control and ±100 the full control effect; potency means the concentration at half of the fitted maximal effect.
SMILES,hNpr1 antagonist
O=C(Nc1ccc2n(c1=O)C[C@H]1C[C@@H]2CN(c2ncccn2)C1)c1ccccc1,2%[70.6 µM]
CSCC(=O)Nc1ccc2n(c1=O)C[C@H]1C[C@@H]2CN(C(=O)CSCC(=O)O)C1,1%[70.6 µM]
Cn1nc(-c2ccccc2)cc1[C@H]1CN2CC[C@H]1C[C@@H]2CNS(C)(=O)=O,3%[70.6 µM]
N#Cc1cccc(-c2ccc3n(c2=O)C[C@H]2C[C@@H]3CN(C(=O)c3ccc(F)cc3)C2)c1,3%[70.6 µM]
Cn1nc(-c2cccs2)cc1[C@H]1CN2CC[C@H]1C[C@@H]2CNS(C)(=O)=O,7%[70.6 µM]
COc1ccccc1N1CCN(C[C@H]2CN3CC[C@H]2C[C@@H]3CNC(=O)Nc2cccc(SC)c2)CC1,-1%
O=C1NCCOCCN[C@H]2CCC[C@@H]12,0%
O=C1N(Cc2cccnc2)C[C@H]2CN(C3CCC3)CCN12,1%[70.6 µM]
Cn1cccc1C(=O)N1[C@H]2CC[C@@H]1c1cnc(-c3ccc(F)cc3)nc1C2,10µM*
Cc1ccnn1CC(=O)N1C[C@@H](c2ccc3c(c2)OCO3)[C@@H]2[C@H]1C1CCN2CC1,4%

# As entered above.
# hNpr1 antagonist result of N#Cc1cccc(-c2ccc3n(c2=O)C[C@H]2C[C@@H]3CN(C(=O)c3ccc(F)cc3)C2)c1 → 3%[70.6 µM]
# hNpr1 antagonist result of O=C(Nc1ccc2n(c1=O)C[C@H]1C[C@@H]2CN(c2ncccn2)C1)c1ccccc1 → 2%[70.6 µM]
# hNpr1 antagonist result of Cn1nc(-c2ccccc2)cc1[C@H]1CN2CC[C@H]1C[C@@H]2CNS(C)(=O)=O → 3%[70.6 µM]
# hNpr1 antagonist result of Cc1ccnn1CC(=O)N1C[C@@H](c2ccc3c(c2)OCO3)[C@@H]2[C@H]1C1CCN2CC1 → 4%

# Other compounds follow.
SMILES,hNpr1 antagonist
CC1CCN(C[C@H]2CN3CC[C@H]2C[C@@H]3CNC(=O)Nc2cccc(C#N)c2)CC1,2%[70.6 µM]
CN1CCC(N[C@@H]2C[C@H](CO)[C@@H](O)[C@H]2O)CC1,-1%[70.6 µM]
O=C(O)CCCC(=O)N1C[C@@H]2C[C@H](C1)c1ccc(-c3ccc(Cl)cc3)c(=O)n1C2,6%[70.6 µM]
CC[C@H]1CN2CC[C@H]1C[C@@H]2CNC(=O)Nc1cccc(C#N)c1,2%[70.6 µM]
CCOC(=O)CCNC(=O)N1[C@H]2CC[C@@H]1c1cnc(C)nc1C2,3%
COCCN1C[C@H]2CN(CC3CC3)CCN2C1=O,-2%[70.6 µM]
Cc1cc(C)c2[nH]c(C(=O)N3CCC(C#N)(c4ccccc4)CC3)c(C)c2c1,8%
C#C[C@H]1CN2CC[C@H]1C[C@@H]2COC(=O)Nc1ccc(C(C)(C)C)cc1,-1%[70.6 µM]
CCOc1ccc(CC(=O)N2CCC3(CC2)c2nccn2-c2ccccc2CN3C)cc1,?
CC(C)N1CC2CCC(C1)N2Cc1ccc(-c2cncnc2)cc1,19%[70.6 µM]
C#C[C@H]1CN2CC[C@H]1C[C@@H]2CNC(=O)C1CCCCC1,1%[70.6 µM]
COc1ccc(-c2ccc(=O)n3c2[C@@H]2C[C@@H](CN(C(=O)C(C)(C)C)C2)C3)cc1,1%[70.6 µM]
Cc1nc(C2CCCC2)cc([C@H]2CN3CC[C@H]2C[C@@H]3CNC(=O)c2ccco2)n1,-3%[70.6 µM]
O=C(Cc1cccc(Cl)c1)N1[C@H]2CC[C@@H]1c1cnc(-c3ccccc3)nc1C2,4%
O=c1cccc2n1CC1CC2CN(Cc2cc3n(n2)CCNC3)C1 (configuration not stated),1%
CCOc1ccccc1C(=O)N1CCC2(CC1)c1nccn1-c1ccccc1CN2C,-24%
COc1ncc(-c2cnc3[nH]cc(CC(=O)N4CCN(C)CC4)c3c2)cn1,-12%[70.6 µM]
CN1Cc2ccccc2-n2ccnc2C12CCN(C(=O)c1cccc(F)c1)CC2,-3%
COc1ccc(-c2cc3c(cc2OC)C2(CCN(C(C)=O)CC2)C(=O)N3)cc1OC,0%[70.6 µM]
C#CCN(C)C[C@H]1CN2CC[C@H]1C[C@@H]2CNC(=O)Nc1ccsc1,5%[70.6 µM]

# The closing two compounds of the part above come first, to join the parts:
SMILES,hNpr1 antagonist
COc1ccc(-c2cc3c(cc2OC)C2(CCN(C(C)=O)CC2)C(=O)N3)cc1OC,0%[70.6 µM]
C#CCN(C)C[C@H]1CN2CC[C@H]1C[C@@H]2CNC(=O)Nc1ccsc1,5%[70.6 µM]
COc1cc2c(cc1OCc1ccccc1)N(C(=O)CC(C)C)CC21CCN(C)CC1,4%[70.6 µM]
COc1cccc(CN2CCCCCCNC(=O)[C@@H]3CCC[C@@H]32)n1,-2%
COc1cc2c(cc1OCc1ccccc1)N([S+](=O)([O-])c1cccc3cccnc13)CC21CCN(C)CC1,-16%
CCOCC(=O)N1CCC2(CC1)c1nccn1-c1ccccc1CN2C,1%
O=C1NCCOCCN[C@@H]2CCCC[C@H]12,-1%
CN1CCN(C(=O)Cc2c[nH]c3ncc(-c4ccsc4)cc23)CC1,7%[70.6 µM]
N#CC1(c2ccccc2)CCN(C(=O)C2CCN(C(=O)C3CC3)CC2)CC1,6%
C#C[C@H]1CN2CC[C@H]1C[C@@H]2CNS(=O)(=O)c1ccc(OC)cc1,-3%[70.6 µM]
Cn1nc(C2CCCCC2)cc1[C@H]1CN2CC[C@H]1C[C@@H]2CNS(C)(=O)=O,-14%[70.6 µM]
COc1cc2c(cc1Oc1ccccc1)NC(=O)C21CCN(c2ncc(C(C)C)cn2)CC1,7%

# Of the compounds above, three have an NH in an aromatic ring:
SMILES,hNpr1 antagonist
Cc1cc(C)c2[nH]c(C(=O)N3CCC(C#N)(c4ccccc4)CC3)c(C)c2c1,8%
COc1ncc(-c2cnc3[nH]cc(CC(=O)N4CCN(C)CC4)c3c2)cn1,-12%[70.6 µM]
CN1CCN(C(=O)Cc2c[nH]c3ncc(-c4ccsc4)cc23)CC1,7%[70.6 µM]

# Next section.
SMILES,hNpr1 antagonist
C=C[C@H]1CN2CC[C@H]1C[C@@H]2CNC(=O)c1ccc(N(C)C)cc1,6%[70.6 µM]
CCCS(=O)(=O)NC[C@H]1C[C@@H]2CCN1C[C@@H]2c1cc(-c2ccc(F)cc2)nn1C,0%[70.6 µM]
CC(C)CN(Cc1cccnc1)C1CN(C(=O)COc2ccc(F)cc2)C1,3%
CCCc1nc(C)cc(N2CCC3(CC2)CNC(C(=O)O)C3)n1 (configuration not stated),1%
CC(=O)c1ccc(NC(=O)NC[C@H]2C[C@@H]3CCN2C[C@@H]3CN2CCSCC2)cc1,-6%[70.6 µM]
CC(C)CN1Cc2ccccc2-n2ccnc2C12CCN(C(=O)c1cccc(F)c1)CC2,-18%
Cc1cc(S(=O)(=O)N2[C@H]3CC[C@@H]2c2cnc(-c4ccccc4)nc2C3)ccc1F,1%
CCn1ccc(C(=O)N2[C@H]3CC[C@@H]2c2cnc(-c4ccc(F)cc4)nc2C3)n1,-14%
CC[C@H]1CN2CC[C@H]1C[C@@H]2CNS(=O)(=O)c1cccs1,0%[70.6 µM]
C#C[C@H]1CN2CC[C@H]1C[C@@H]2CNCc1cccc(C#N)c1,-2%[70.6 µM]
Cc1ccc(S(=O)(=O)NC[C@H]2C[C@@H]3CCN2C[C@@H]3CN2CCCCC2)cc1,4%[70.6 µM]
C=CCN(C)C(=O)[C@H]1CN2CCC1C[C@@H]2Cn1cc(COC)nn1 (some centres not stated),8%[70.6 µM]
CCC(CC)C(=O)NC[C@H]1C[C@@H]2CCN1C[C@@H]2c1cc(-c2ccccc2Br)nc(C)n1,4%
O=C1N(Cc2ccccn2)C[C@H]2CN(C3CCOCC3)CCN12,4%[70.6 µM]
COc1cc2c(cc1CCc1ccccc1)N(C(=O)COc1ccccc1)CC21CCN(C(C)=O)CC1,-2%
Cn1ccnc1CN1C(=O)NC2(CCNCC2)C1=O,-2%
COc1cc2c(cc1OCc1ccccc1)N(C(=O)c1ccc3[nH]ccc3c1)CC21CCN(C)CC1,-2%
NCc1cn(C[C@H]2CC3CCN2C[C@@H]3C(=O)N2CCCC2)nn1 (some centres not stated),3%[70.6 µM]
COc1cc2c(cc1OC1CCCC1)NC(=O)C21CCN(C(=O)c2cccc(C#N)c2)CC1,-10%
COCC(=O)NC[C@H]1C[C@@H]2CCN1C[C@@H]2CN1CCN(C)CC1,0%[70.6 µM]

# Given with each value named: part of the list above
CCC(CC)C(=O)NC[C@H]1C[C@@H]2CCN1C[C@@H]2c1cc(-c2ccccc2Br)nc(C)n1
  hNpr1 antagonist = 4%

O=C1N(Cc2ccccn2)C[C@H]2CN(C3CCOCC3)CCN12
  hNpr1 antagonist = 4%[70.6 µM]

COc1cc2c(cc1CCc1ccccc1)N(C(=O)COc1ccccc1)CC21CCN(C(C)=O)CC1
  hNpr1 antagonist = -2%

Cn1ccnc1CN1C(=O)NC2(CCNCC2)C1=O
  hNpr1 antagonist = -2%

# (next part)
SMILES,hNpr1 antagonist
Cc1cnc(CCN)n1C1CCC1,3%
O=S1(=O)C[C@@H]2NCCN(c3ccnc(N4CCCNCC4)n3)[C@@H]2C1,-2%
Cn1nc(-c2cccs2)cc1[C@H]1CN2CC[C@H]1C[C@@H]2CN,3%[70.6 µM]
Cc1nc(-c2cccs2)cc([C@H]2CN3CC[C@H]2C[C@@H]3CNC(=O)Nc2cccc(C(F)(F)F)c2)n1,4%
COc1ccccc1CNC(=O)[C@H]1CN2CCC1C[C@@H]2Cn1cc(CO)nn1 (some centres not stated),-1%[70.6 µM]
CN1Cc2ccccc2-n2ccnc2C12CCN(C(=O)C1CCCCC1)CC2,9%
O=C(c1ccccc1)N1C[C@@H]2C[C@H](C1)c1ccc(NS(=O)(=O)c3cccs3)c(=O)n1C2,3%
O=C(c1ccc(F)cc1)N1C[C@@H]2C[C@H](C1)c1ccc(C3CCCCC3)c(=O)n1C2,-1%[70.6 µM]
O=S(=O)(NC[C@H]1C[C@@H]2CCN1C[C@@H]2CN1CCc2ccccc2C1)c1ccccc1,-19%[70.6 µM]
COCC(=O)N1CCC2(CC1)C(=O)Nc1cc(Oc3cccc(N(C)C)c3)c(OC)cc12,3%[70.6 µM]
COc1cc2c(cc1OC1CCCC1)NC(=O)C21CCN(C(C)=O)CC1,-6%[70.6 µM]
CCC(CC)c1cc([C@H]2CN3CC[C@H]2C[C@@H]3CNC(=O)C2CCC2)nc(-c2ccncc2)n1,1%
COC[C@H]1CCCN1C[C@H]1CN2CC[C@H]1C[C@@H]2CNC(=O)c1ccc(N(C)C)cc1,0%[70.6 µM]
Cn1nc(-c2cccs2)cc1[C@H]1CN2CC[C@H]1C[C@@H]2CNC(=O)CCCC(=O)O,0%[70.6 µM]
COCC(=O)NC[C@H]1C[C@@H]2CCN1C[C@@H]2c1cc(-c2ccccc2OC)nc(C)n1,4%[70.6 µM]
COc1cc2c(cc1OC1CCCC1)NC(=O)C21CCN(C(=O)C(C)C)CC1,-2%[70.6 µM]
COc1cc2c(cc1OCC1CC1)NC(=O)C21CCN(c2cnccn2)CC1,-1%[70.6 µM]
COCC(=O)NC[C@H]1C[C@@H]2CCN1C[C@@H]2c1cc(C2CCCCC2)nn1C,-2%[70.6 µM]
CCOc1ccccc1C(=O)N1CCC2(CC1)NCc1ccccc1-n1ccnc12,-17%
O=C(c1cnccn1)N1C[C@@H]2C[C@H](C1)c1c(-c3ccccc3)ccc(=O)n1C2,6%[70.6 µM]
COc1ccccc1-c1cc([C@H]2CN3CC[C@H]2C[C@@H]3COC(=O)Nc2ccccc2)n(C)n1,-2%
Cc1ncc2c(n1)C[C@@H]1CC[C@H]2N1S(=O)(=O)c1c(C)noc1C,13%
CC(C)(C)c1ccc(-c2cn(C[C@H]3CC4CCN3C[C@@H]4C(=O)NCc3ccccc3)nn2)cc1 (some centres not stated),6%
CCOc1ccc(C(=O)N2CCC3(CC2)NCc2ccccc2-n2ccnc23)cc1,-11%
CC(=O)NCCNC(=O)[C@H]1CN2CCC1C[C@@H]2Cn1cc(-c2ccc(C(C)(C)C)cc2)nn1 (some centres not stated),3%
COc1nc2c(cc1CNC(=O)C1C(C)(C)C1(C)C)C(=O)N(C1CCCC1)C2,4%
O=C(c1ccsc1)N1CC(CO)C2(CCNCC2)C1 (configuration not stated),13%
COc1ccccc1C(=O)N1CCC2(CC1)c1nccn1-c1ccccc1CN2CC(C)C,1%
CN(C)[C@H]1CCCCN(C(=O)Cc2ccc(S(C)(=O)=O)cc2)C1,0%
O=C(c1ccoc1)N1[C@H]2CC[C@@H]1c1cnc(-c3ccccc3)nc1C2,?
Cc1nn(C)c2ncnc(NCCc3c[nH]c(=O)[nH]c3=O)c12,-1%
CCCCc1cn(C[C@H]2CC3CCN2C[C@@H]3C(=O)NCc2ccc3c(c2)OCO3)nn1 (some centres not stated),-5%[70.6 µM]
CCn1ccc(C(=O)N2CCC3(CC2)c2nccn2-c2ccccc2CN3CC(C)C)n1,4%

# Assay outcomes: PubChem, National Center for Advancing Translational Sciences (NCATS)

# The list is partial (hit frequency here may not be typical).
